Screens as filed in PubChem BioAssay.
GLA inh pH 4.5: blocks human alpha-galactosidase A at pH 4.5. P06280. purified enzyme, 4-MU-alpha-Gal fluorescence, pH 4.5. activity change, negative = inhibition, % at 105 µM. 230,000 tested, under 10 active; inconclusive = small, poorly fitted or top-dose-only inhibition, or a rising curve; inactive = flat fitted curve, though single readings scatter; no compound was filed as active;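 note: 0% = full activity with enzyme and -100% = basal without enzyme; dose as in the result columns while the protocol names 77 µM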
Target sequence (P06280 whole entry, looked up): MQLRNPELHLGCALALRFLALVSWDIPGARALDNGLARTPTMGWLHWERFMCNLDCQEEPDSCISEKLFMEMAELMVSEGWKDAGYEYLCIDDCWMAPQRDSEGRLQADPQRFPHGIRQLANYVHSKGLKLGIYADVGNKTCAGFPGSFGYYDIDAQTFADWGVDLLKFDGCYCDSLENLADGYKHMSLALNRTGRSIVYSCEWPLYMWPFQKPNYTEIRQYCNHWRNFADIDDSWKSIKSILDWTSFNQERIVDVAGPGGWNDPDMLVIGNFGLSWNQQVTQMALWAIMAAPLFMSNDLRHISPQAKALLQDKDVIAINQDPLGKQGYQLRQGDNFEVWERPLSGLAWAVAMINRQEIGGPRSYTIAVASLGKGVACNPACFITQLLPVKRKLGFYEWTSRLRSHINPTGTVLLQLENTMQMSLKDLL
miR-21 reporter: raises the signal of a miR-21 reporter. HeLa miR-21 FLuc reporter, luciferase, 48 h. Potency, µM (highest dose often 38.3 µM), inactives show top-dose reporter change, positive = more light. 340,000 tested, under 10 active; active = well fitted rising curve with a large enough effect; inconclusive = small, poorly fitted or top-dose-only effect; inactive = no such curve, though single readings can be large or run the other way;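 note: % of control where 0% means no effect; miR-21 action dims this reporter so a rising signal means less miR-21 action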
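HeLa miR-21-FLuc reporter line, endogenous miR-21; 2000 cells/well in DMEM/10% FBS; compound titration up to ~40uM final, 48 h, 37 degree Celsius; luciferase detection reagent, 15 min lysis, CCD luminescence.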
Rango-impB inh: inhibitors of Rango-importin beta complex formation | Q14974 | Rango CFP/YFP FRET sensor + importin beta, 45 min | Potency, µM (top dose mostly 92.2 µM), for inactives: at the top dose inhibition of complex formation | 340,000 tested, 0.031% active | AID 540263; active = rising FRET ratio curve, often small or poorly fitted; inconclusive = mostly compound fluorescence or quenching in the first reads; inactive = flat curves in all reads;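 note: potency is the fitted concentration of half-maximal effect; 0% = DMSO wells and 100% = buffer wells lacking importin beta; nearly all actives have a fitted effect of over 15% in size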
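FRET biosensor Rango (snurportin 1 IBB between N-terminal EYFP and C-terminal Cerulean), 50 nM in PBS/1 mM DTT/0.02% Tween-20/0.1% BSA, preincubated 5 min RT with compound; 0.125 microM importin beta added, 45 min RT, CFP/YFP FRET ratio read.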
Rango release inh: inhibition of RanGTP-driven Rango-importin beta dissociation. 340,000 tested, 0.071% active. Biochemical FRET Rango-importin beta, RanGTP-induced dissociation. O95149+P62826. AID 540253. Potency, µM (series often up to 46.1 µM), inactives show top-dose activity change, negative = inhibition; active means falling FRET ratio curve, often poorly fitted, with flat reads before Ran was added; inconclusive means other falling curves, or compound fluorescence or quenching; inactive means flat or rising ratio curve;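 note: potency is the fitted concentration of half-maximal effect; % of control where 0% means no effect; nearly all actives have a fitted effect of over 45% in size; -100% = wells without RanGTP and RCC1; the record marks most hits as doubtful in a second field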
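Compounds sat 5 min at room temperature with 0.1 uM Rango biosensor plus 0.25 uM importin beta, then FRET pre-read. RanGTP-RCC1 (0.6 uM Ran, 2mM GTP, 0.2 uM RCC1) added for 45 min, and the CFP/YFP post-read measured blocked complex dissociation.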
* hit, by the source's call; ? = inconclusive; . = no result given; & = joins results of further samples. A portion of the library; rates above refer to the full screens.

SMILES | GLA inh pH 4.5 | miR-21 reporter | Rango-impB inh | Rango release inh
CCOC(=O)c1c(C)[nH]c(=S)c(C#N)c1-c1ccc(Cl)cc1 | -4 | 1% | -1.2% | -13%
CCN1CCN(C(=O)c2ccc(N3CC4CC(C3)c3cccc(=O)n3C4)c([N+](=O)[O-])c2)CC1 (configuration not stated) | -2 | 0% | 4.3% | 9%
COc1cc(CC(NC(C)=O)C(=O)NC2CCN(c3c4c(nc5ncnn35)CCC4)CC2)cc(OC)c1 (configuration not stated) | 5 | 5% | . | .
O=C(O)COc1ccc2c(c1)CCCC2 | -11 | -1% | -0.6% | -4%
Cc1ccc2c(COC(=O)c3ccccc3OC(F)F)cc(=O)oc2c1 | . | -4% | 0.3% | 8%
COc1cccc2cc(-c3ccnc(=S)[nH]3)oc12 | 1 | -28% | . | .
O=C(COc1ccc(Cl)cc1)OCC(=O)N1CCCc2ccccc21 | -4 | -2% | 0.2% | 16%
C=C1CCC[C@]2(C)C[C@H]3OC(=O)C(CNCC(OC)OC)[C@H]3CC12 (some centres not stated) | . | -1% | ? | 11%
O=C(Nc1cccc2c1CCCC2)c1cccc(F)c1 | . | 2% | -2.1% | 0%
C=CCSc1nc(N)cc(=O)[nH]1 | -2 | -5% | 2.3% | -8%
CS(=O)(=O)N(CC(=O)N1CCN(Cc2ccc3c(c2)OCO3)CC1)c1ccc2c(c1)OCO2 | -6 | 1% | 0.7% | 25%
O=[N+]([O-])c1ccccc1OC/C(=N\O)c1ccccc1 | . | -36% | 1.8% | 23%
Cc1noc(C)c1NC(=O)Nc1ccc2c(c1)C(=O)N([C@H](C)CO)C[C@H](C)[C@@H](CN(C)C(=O)NC(C)C)O2 | . | . | ? | 37%
COc1ccc(-c2cc(CNS(=O)(=O)c3ccc(NC(C)=O)cc3)on2)cc1 | . | 0% | -1.1% | -19%
CCC1(C)Cc2sc3c(=O)[nH]c(=S)[nH]c3c2CO1 (configuration not stated) | 3 | -2% | 2.2% | 8%
Fc1ccc(-c2noc(-c3ccc4c(c3)CCO4)n2)cc1 | -15 | -45% | ? | -2%
O=C(NC1CCCC1)c1cc(-c2ccccc2)on1 | . | -106% | 6.3% | 9%
O=C(O)CCNC(=O)c1cncc(Br)c1 | -2 | 0% | -0.9% | 8%
COc1cccc(CNC(=S)Nc2cc(C)cc(C)c2)c1 | 3 | -3% | 1.1% | 1%
O=C(Nc1ccc(OC(F)F)c(Cl)c1)c1ccccn1 | -1 | -41% | 0.1% | 15%
O=C(CCNC(=O)c1ccc(Cl)cc1)NN1C(=O)NC2(CCCCC2)C1=O | . | . | 5.6% | 6%
C=CCNc1nc(C2(C)CC3(CC(C)OC3=O)C(=O)O2)cs1 (configuration not stated) | 1 | -5% | -0.8% | 2%
C[C@H](NC(=O)c1nc[nH]c1C(=O)NCC(=O)OC(C)(C)C)c1ccccc1 | . | 3% | -0.4% | -3%
COC(=O)C1=CN(C(C)c2ccccc2)C=C(C(=O)OC)C1c1cc(OC)c(OC)c(OC)c1 (configuration not stated) | . | 2% | ? | ?
O=C1C(Cl)=C(N2CCOCC2)C(=O)N1c1ccc(Br)cc1 | . | 9% | 0.7% | -6%
CN(C)c1ccc(O)c2c1CC1CC3C(N(C)C)C(=O)C(C(N)=O)=C(O)[C@@]3(O)C(=O)C1=C2O (some centres not stated) | . | . | -5.2% | 2%
CN(C)CCCN(Cc1ccccc1)C(=S)NCc1ccccc1 | -5 | -3% | -0.3% | 27%
O=C(CSc1nnc(-c2ccccc2)o1)c1nnc(-c2ccccc2)o1 | 0 | -17% | ? | ?
OC(COc1c(F)cc(Br)cc1F)CN1CCc2ccccc2C1 (configuration not stated) | . | 2% | 0.8% | -8%
COc1cc(Nc2c3c(nc4ccccc24)CCC3)cc(OC)c1OC | . | 24% | 3.0% | -12%
CC(=O)Nc1cccc(C(=O)Nc2cccc(S(=O)(=O)NCc3ccco3)c2)c1 | . | . | 0.0% | 18%
COc1cc(C(C(=O)NC2CCCCC2)N(C(=O)c2cnccn2)c2ccccc2)cc(OC)c1OC (configuration not stated) | . | 3% | 0.6% | 0%
N=c1c(C(=O)NC2CCCC2)cc2c(=O)n3ccccc3nc2n1Cc1ccccc1 | . | -3% | ? | ?
Cc1ccc(C(=O)CCC(=O)OCC(=O)Nc2nnc(-c3ccccc3)o2)cc1 | . | . | -1.2% | 4%
COC(=O)c1cccc(NC(=O)CN2CCN(Cc3ccccc3)CC2)c1 | 2 | -16% | ? | -8%
CC1(C)CC(CC(=O)O)C(=O)O1 (configuration not stated) | -11 | 1% | 0.3% | -15%
O=C(CN(C1CCCCC1)S(=O)(=O)c1ccc(F)cc1)NC1CC1 | 0 | 0% | -0.4% | -1%
COc1ccc(C(=O)c2cn[nH]c2-c2cc(C)ccc2O)cc1 | . | 3% | 1.1% | -12%
NC(=O)CS(=O)(=O)c1nc2ccccc2n1Cc1ccccc1F | 2 | 10% | 0.4% | 13%
CCc1ccccc1Nc1nc2ccccc2n1C | 3 | -2% | -2.2% | ?
Nc1nc(NCCCN2CCOCC2)nc(NCc2ccccc2)c1[N+](=O)[O-] | -8 | -3% | 0.9% | 1%
Cc1cc(=O)oc2cc(OCc3ccc(C(=O)OCC(=O)N(C)C4CCS(=O)(=O)C4)cc3)ccc12 (configuration not stated) | -5 | -11% | -1.4% | 17%
COc1ccc(O)c(CN2CCCC(N3CCN(c4ccccc4OC)CC3)C2)c1 (configuration not stated) | . | 5% | 2.2% | 3%
O=C(O)CSCC(=O)Nc1ccc(C2CCCCC2)cc1 | 9 | ? | 1.1% | 1%
O=C(NS(=O)(=O)c1ccccc1[N+](=O)[O-])c1ccccc1 | . | -2% | -0.2% | -10%
Cc1sc2nc(C3CC3)nc(NCCNS(C)(=O)=O)c2c1C | 3 | -33% | 4.0% | 34%
COc1ccc2oc(=O)c(-c3csc(Nc4cccc(O)c4)n3)cc2c1 | -7 | -35% | ? | ?
O=C(CC(c1ccccc1)c1ccccc1O)N1CCCC1 (configuration not stated) | 0 | -1% | 4.8% | -3%
COc1ccc(NC(=O)c2cc(-c3cc(C)cc(C)c3O)n[nH]2)cc1Cl | -5 | ? | 3.3% | -9%
CC(=O)c1cn(CC(=O)Nc2ccccc2C)c2ccccc12 | 6 | 11% | 2.2% | 11%
COCc1cc(C)nc(SCC(=O)Nc2ccc3c(c2)n(C)c(=O)n3C)c1C#N | . | 0% | 1.0% | 22%
NCCCCNCCCN | -14&-6&4&-4 | 0% | -2.8% | -3%
C[C@@H](NC(=O)C1(c2ccccc2)CCN(C(=O)OC(C)(C)C)CC1)C(=O)N[C@@H](C(=O)O)c1ccccc1 | . | -5% | 1.2% | 2%
COc1ccc([N+](=O)[O-])cc1C1NN=C(c2ccccc2O)S1 (configuration not stated) | 4 | -16% | 4.2% | -10%
C[C@]12CCC(=O)CC1=CCC1C3CC=C(C#N)[C@@]3(C)CC[C@@]12O (some centres not stated) | . | 3% | 0.3% | -7%
Cc1ccc(S(=O)(=O)NCCN=C(CN2CCCC2)NS(=O)(=O)c2ccc(C)cc2)cc1 | -2 | -6% | 1.8% | -10%
COc1ccc(Nc2sc(C(=O)Nc3cccc(Cl)c3)c(N)c2C(=O)Nc2ccccc2OC)cc1 | -1 | 18% | . | .
CCCNC(=S)N1CCC(C(=O)c2ccc(F)cc2)CC1 | . | 1% | -1.7% | -4%
O=C(Cc1c(O)c2ccccc2[nH]c1=O)NC1CCCCCCC1 | 2 | -11% | 2.1% | -10%
O=C1c2cccnc2C(Nc2ccccc2)N1Cc1ccco1 (configuration not stated) | -5 | -9% | -1.8% | -6%

Carrying on.
SMILES | GLA inh pH 4.5 | miR-21 reporter | Rango-impB inh | Rango release inh
COc1cc(C2N(c3ccccn3)C(=O)C3CCCN32)cc(OC)c1OC (configuration not stated) | 3 | -2% | -1.9% | -8%
COc1ccc(CNC(=O)COc2ccc(S(=O)(=O)N3CCCCC3)cc2Cl)cc1 | . | 11% | -1.7% | -2%
Cc1c(CC(=O)O)c(=O)oc2cc(OCc3ccc(Cl)cc3)ccc12 | . | -30% | 7.2% | -15%
CCOC(=O)c1nc2cc3n(c(C)c-2c1C)C(C)C(CC)=C3C (configuration not stated) | . | . | ? | 0%
COc1ccc(CNC(=O)C2CCCN2C)cc1OC (configuration not stated) | 4 | -1% | -6.3% | -7%
O=C(COc1ccccc1Cl)Nc1ccc2c(c1)C(=O)NC2=O | . | 8% | -5.6% | 1%
CCOC(=O)CSc1nnc(NC(=O)c2cccc([N+](=O)[O-])c2C)s1 | 7 | -2% | 2.9% | -11%
COCC(=O)O[C@]1(CCN(C)CCCc2nc3ccccc3[nH]2)CCc2cc(F)ccc2[C@@H]1C(C)C | -21&-12&-14 | ? | 7.9% | -5%
Cc1ccc(CNC(=O)CCCCCNc2nc(=S)[nH]c3ccccc23)cc1 | 4 | 0% | . | .
COc1ccc2c(c1OC)C(=O)N(c1ccccn1)C2 | -2 | -29% | -0.1% | 3%
Cc1nn(CC(=O)Nc2ccc3c(c2)nc2n3CCN(C3CCCCC3)C2)c(=O)c2ccccc12 | 0 | 5% | -0.8% | 4%
N#Cc1ccccc1Oc1ccc(S(=O)(=O)N2CCCCC2)cn1 | . | . | -1.2% | 0%

An excerpt from above in order of molecular weight, smallest number first.
SMILES | GLA inh pH 4.5 | miR-21 reporter | Rango-impB inh | Rango release inh
COc1ccc2c(c1OC)C(=O)N(c1ccccn1)C2 | -2 | -29% | -0.1% | 3%
O=C(COc1ccccc1Cl)Nc1ccc2c(c1)C(=O)NC2=O | . | 8% | -5.6% | 1%
COCC(=O)O[C@]1(CCN(C)CCCc2nc3ccccc3[nH]2)CCc2cc(F)ccc2[C@@H]1C(C)C | -21&-12&-14 | ? | 7.9% | -5%

Next section
SMILES | GLA inh pH 4.5 | miR-21 reporter | Rango-impB inh | Rango release inh
COc1ccc([C@H]2CC(=O)C=C(c3cccc(CO)c3)C2)cc1 | . | . | -0.2% | -5%
CCN(CC)c1ccc(C(=O)N2CCN(Cc3ccccc3)CC2)cc1 | 1 | -2% | 0.8% | -4%
CN(C(=O)CSc1nc(-c2ccccc2)cn1N)C(c1ccccc1)c1ccccc1 | -11 | 9% | -1.7% | -7%
O=C(CCc1ccccc1)NNC(=O)c1ccc(Br)cc1 | -3 | 0% | -5.2% | -2%
Nc1ccc(S(=O)(=O)NCC(=O)OC2CCOC2=O)cc1[N+](=O)[O-] (configuration not stated) | . | . | -0.9% | 9%
Cn1cnnc1Sc1nc([N+](=O)[O-])nn1C | 0 | -2% | -0.2% | 40%
CCc1ccc(/C=C2\Oc3c(ccc(O)c3CN3CCN(CCO)CC3)C2=O)cc1 | -8 | -10% | ? | ?
COC(=O)Cc1[nH]n(-c2ccccc2)c(=O)c1C(C)=Nc1ccccc1 | 4 | 7% | -0.7% | 10%
COc1cccc2c(=O)ccoc12 | -6 | -10% | -0.1% | 5%
O=C(Nc1ccc(Br)cc1)Nc1ccccc1F | 2 | -12% | -1.1% | 18%
COc1ccc(-c2nn(-c3ccccc3)cc2CN(C)CCn2ccnc2C)c(F)c1 | -8 | -3% | -0.4% | -2%
O=C(c1cccs1)N1CCN(Cc2cccc([N+](=O)[O-])c2)CC1 | 6 | -4% | -1.1% | 9%

Pulled by compound from the entries so far (7):
SMILES | GLA inh pH 4.5 | miR-21 reporter | Rango-impB inh | Rango release inh
NCCCCNCCCN | -14&-6&4&-4 | 0% | -2.8% | -3%
Cc1c(CC(=O)O)c(=O)oc2cc(OCc3ccc(Cl)cc3)ccc12 | . | -30% | 7.2% | -15%
OC(COc1c(F)cc(Br)cc1F)CN1CCc2ccccc2C1 (configuration not stated) | . | 2% | 0.8% | -8%
COC(=O)C1=CN(C(C)c2ccccc2)C=C(C(=O)OC)C1c1cc(OC)c(OC)c(OC)c1 (configuration not stated) | . | 2% | ? | ?
O=C(Nc1ccc(Br)cc1)Nc1ccccc1F | 2 | -12% | -1.1% | 18%
N#Cc1ccccc1Oc1ccc(S(=O)(=O)N2CCCCC2)cn1 | . | . | -1.2% | 0%
O=C(CCNC(=O)c1ccc(Cl)cc1)NN1C(=O)NC2(CCCCC2)C1=O | . | . | 5.6% | 6%
